Sa growth 42C: blocks Staphylococcus aureus growth. S. aureus RN4220 growth, OD600, 20 h, 42 °C; stronger effect = lower value. relative growth, % (no concentration beside the values). hit rate 0.53% among 170,000. AID 720641;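 active means growth at 42 °C up to 50% and 20 or more points under that at 30 °C, or under 10% at both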;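 further: 300 nL library stock went into each well; scaled to the means of positive and negative controls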
HCMV UL50-53 inh: cytomegalovirus nuclear egress complex inhibition | hit rate 0.15% among 190,000 | HTRF UL50-UL53 interaction, normalized percent inhibition | inhibition, % (test concentration not listed) | AID 1918969;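 active means both replicates at 50% or more, plus weaker picks with an unusually low signal ratio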;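 further: stock transfer was 100 nL into about 20 µL; 0% = negative control wells and 100% = wells with untagged competitor protein; inactives centre near -12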
GIV Gai3 FP: blocks GIV peptide binding to rat Galpha-i3. P08753. Galpha-i3/FITC-GIV peptide fluorescence polarization, 90 min; stronger effect = lower value; scaled: aluminum fluoride 0%, vehicle 100%. percent of control (FP), % (concentration not given with the values). hit rate 0.42% among 210,000. AID 1224905;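 active means replicate mean at 85% of control or lower, very high polarization wells dropped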;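 further: wells of about 15 µL received 100 nL stock; the first replicate is given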
Target sequence (P08753 whole entry, looked up): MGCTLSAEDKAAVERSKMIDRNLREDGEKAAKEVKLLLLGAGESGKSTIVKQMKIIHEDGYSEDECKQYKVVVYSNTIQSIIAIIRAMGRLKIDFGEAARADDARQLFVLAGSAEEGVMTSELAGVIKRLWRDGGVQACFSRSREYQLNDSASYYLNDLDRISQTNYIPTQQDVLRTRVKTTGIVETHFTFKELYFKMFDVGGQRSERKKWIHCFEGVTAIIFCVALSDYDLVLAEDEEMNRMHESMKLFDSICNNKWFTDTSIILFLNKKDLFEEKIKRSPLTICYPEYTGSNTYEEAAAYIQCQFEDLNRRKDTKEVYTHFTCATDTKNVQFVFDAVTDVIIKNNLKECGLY
Sa growth 42C second temp: further read-out of Sa growth 42C, marked with its call; relative growth, %; measured here: growth at 30 °C;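 optical density after 20 h as mean of two plates; 100% = untreated growth and lower means inhibition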
An asterisk follows results filed as active; . = no result given; & = joins results of further samples.

SMILES	Sa growth 42C	Sa growth 42C second temp	HCMV UL50-53 inh	GIV Gai3 FP
CSc1nc(C)cc(-c2ccccc2)n1	110.2	84.6	-28.4	.
Cc1cc(C)cc(NC(=O)CN2C(=O)CCc3ccccc32)c1	95.2	82.0	.	104.8
COc1ccc(NC(=O)CCn2cnc3ccccc3c2=O)cc1	.	.	-38.2	98.8
Cc1ccc(CC(C#N)Sc2nc3ccccc3n2CCC#N)cc1 (stereo not drawn)	104.5	103.8	6.0	.
Cc1ccc(C(=O)Nc2ccc(-c3nc4ccccc4o3)cc2)cc1Cl	97.3	87.6	-21.1	100.8
O=C(NN1CC(=O)N(c2ccccc2-c2ccccc2)C1=O)c1ccncc1	112.8	88.6	-1.1	102.7
FC(F)(F)c1ccc(Nc2n[nH]c(=S)s2)cc1	54.1	24.5	-5.5	101.3
Nc1nc2nc(-c3cccs3)cc(C(F)(F)F)c2s1	93.2	97.5	6.9	.
CCC1CN(C(=O)N2CCC(C(=O)N3CCN(c4ccccc4F)CC3)CC2)c2ccccc2O1 (stereo not drawn)	76.0	89.9	5.5	108.1
COC(=O)c1scc2c(SCc3ccccc3)cc(C(F)(F)F)nc12	96.4	91.0	-25.2	110.5
Cc1cc2cc(CN(CC3COCCO3)S(=O)(=O)c3ccc(F)cc3)c(=O)[nH]c2cc1C (stereo not drawn)	100.5	122.7	16.2	102.8
CCC(CC)NC(=O)CSc1nc(C)c(C)n1CC(C)C	92.6	92.4	-19.1	.
CCOC(=O)N1CCN(C(=O)c2cc(-c3ccc(F)cc3)n[nH]2)CC1	98.5	96.9	2.9	99.2
Cc1ccc2c(COC(=O)c3ccc(Cl)nc3)cc(=O)oc2c1	81.4	92.8	-8.7	.
Cc1cc(C(=O)Nc2cc(-c3ccccc3)nn2C)no1	108.6	93.1	46.4	98.3
C(=C\C1Nc2ccccc2-c2nc3ccccc3n21)/c1ccccc1 (stereo not drawn)	112.0	82.4	.	105.3
CS(=O)(=O)Nc1ccc2oc3ncccc3c(=O)c2c1	97.1	89.1	-61.8	94.7
COc1ccc(NC(=O)C(Cc2ccccc2)NS(=O)(=O)c2ccc3c(c2)CCN3C(C)=O)cc1 (stereo not drawn)	111.9	92.6	-17.3	104.9
Cc1cccc(N(C)C(=O)CN2C(=O)COc3ccc(S(=O)(=O)N4CCCCCC4)cc32)c1	115.8	86.2	.	105.4
CCOC(=O)c1cc2c(=O)n3ccccc3nc2n(C)c1=NC(=O)c1ccc(OC)cc1	86.5	89.1	-43.7	104.7
Cc1ccc(-c2nc(Nc3cccc(C(F)(F)F)c3)sc2CC(=O)O)cc1	115.5	100.6	.	99.5
CCn1c(NCc2ccco2)nc2ccccc21	114.3	89.4	4.1	105.2
CSc1ncc(F)c(N(CCO)CCO)n1	110.0	86.8	-0.6	.
c1cncc(CSc2nc3ncccc3o2)c1	.	.	-36.9	103.8
CN(C(=O)COC(=O)c1ccc(Cl)c(N)c1)C1CCCCC1	102.4	94.6	-4.8	.
CC(Nc1ccccc1)c1ccncc1 (stereo not drawn)	90.5	77.1	-18.9	102.8
COc1cc(NC(=O)C2=C(C)Nc3nnnn3C2c2ccc(SC)cc2)c(OC)cc1Cl (stereo not drawn)	107.0	94.1	-16.8	106.7
CCOc1ccc2[nH]c(=O)c(Cc3ccccc3)c(O)c2c1	92.9	88.0	-16.3	.
O=C(NC1CCCc2ccccc21)c1cc2n(n1)CCCN(Cc1ccc(F)cc1)C2=O (stereo not drawn)	.	.	6.9	105.4
COc1ccc(CNC2CC2)cc1	90.5	97.1	-5.3	.
COC(=O)C1=C(C)NC(C)=C(C(=O)OC)C1c1ccc(Cl)cc1	.	.	-10.8	103.0
Cc1ccc(-c2nnc(-c3cc(C(=O)NN)c(C)nc3C)o2)cc1	101.0	89.0	.	101.2
COc1cccc(C2CC(=O)NC3=C2C(=O)CC(C)(C)C3)c1 (stereo not drawn)	.	.	-16.0	100.5
O=C(COC(=O)c1cccc(C(F)(F)F)c1)NCc1ccccc1	110.5	82.1	-46.9	.
COc1ccc(C)cc1NC(=O)CN1CCSc2ccccc21	137.3	92.4	-8.2	.
Nc1nnc(C2CCCC2)s1	105.4	98.9	-29.6	100.9
CCCn1c(-c2ccccc2)cn2c3c(=O)n(C)c(=O)n(C)c3nc12	86.1	90.0	10.2	108.0
O=C(NCc1cccs1)c1ccc(NC(=O)c2ccc(=O)[nH]c2)cc1	95.9	86.9	-10.5	.
Cc1cc(-c2ccccc2)nc2cc(C(=O)Nc3cc(Oc4ccc(O)cc4)cc([N+](=O)[O-])c3)nn12	.	.	-3.4	98.7
COc1cccc(NC(=S)NCc2cccn2C)c1	106.0	93.6	-15.4	99.5
COc1cccc(N2CCN(C(=O)c3nn(C)c4c3CSc3ccc(C)cc3-4)CC2)c1	109.7	89.6	.	102.3
COc1ccccc1-c1nc2sc3c(c2c(=O)o1)CCCC3	.	.	-29.2	106.3
CSc1ccc(CNC(=O)c2cccs2)s1	85.2	99.9	6.3	100.4
O=C(O)CSc1nnc(Cn2c(=O)sc3ccccc32)n1-c1cccc(C(F)(F)F)c1	99.4	96.9	.	91.7
Cc1ccc(C)c(NCCOc2ccccc2)c1	122.7	94.0	-14.5	.
NC(=S)N/N=C1\CCOc2ccc(Cl)cc21	90.8	82.2	-36.3	109.7
O=C(c1cc2cc(Br)ccc2oc1=O)N1CCCc2ccccc21	115.7	91.5	.	104.0
Cc1cc(C)n(CC(=O)NC2CCCCC2)n1	97.1	83.3	-0.2	104.0
O=C(CC1CCCC1)OCC(=O)c1ccc(Cl)cc1	105.5	87.8	-39.7	.
CCOC(=O)c1cccc(NC(=O)c2cccc3c2C(=O)N(C2CCN(C(=O)OCC)CC2)C3)c1	75.7	91.6	5.5	98.2
CCOC(=O)c1sc(SC#N)c(C(=O)OCC)c1C	69.8	83.4	-7.1	.
CCOC(=O)c1cc(S(=O)(=O)NCc2ccccc2)[nH]n1	96.7	96.1	.	99.9
CCCCNC(=O)C1CCN(S(=O)(=O)c2cccc3nsnc23)CC1	92.3	96.9	-63.9	102.1
CCN1CCc2c(sc3[nH]c(=S)n(Cc4ccccc4)c(=O)c23)C1	63.9	75.3	-68.3	.
O=C(COc1ccc(Cl)cc1)NCC(c1ccco1)N1CCc2ccccc2C1 (stereo not drawn)	72.3	43.4	-6.1	103.7
CCOc1ccccc1N(C)S(=O)(=O)c1ccc2[nH]c(=O)ccc2c1	91.1	73.1	.	104.9
Cc1cc(C)c2oc(-c3ccc(C)c(NC(=O)/C=C/c4ccco4)c3)nc2c1	89.0	67.1	3.2	131.0
COc1ccc(C2c3c(n(C)c4ccccc34)C(=O)N2CC(=O)Nc2ccc(C)c(Cl)c2)cc1 (stereo not drawn)	113.5	101.9	.	110.5
CN(CCOc1ccc(Br)cc1)Cc1nnc(-c2ccc(F)cc2)o1	106.5	85.8	-21.9	.
CCC(=O)Nc1cc(C(F)(F)F)cnc1OC	98.7	97.2	-1.7	102.9
Next part.
SMILES	Sa growth 42C	Sa growth 42C second temp	HCMV UL50-53 inh	GIV Gai3 FP
Nc1ccccc1N1CCCCC1	81.4	90.3	1.9	.
O=C(NC1CCCCCCC1)c1c[nH]c2ccc(S(=O)(=O)N3CCOCC3)cc2c1=O	89.6	81.9	-24.6	100.4
O=C(CN1CCC(c2nc3ccccc3o2)CC1)Nc1cc(F)ccc1F	101.5	94.4	12.1	.
COc1ccc(-c2nc(C)c(CCNC(=O)C(C)(C)C)s2)cc1	97.8	76.1	.	96.7
Cc1ccc(/C=C/c2onc(C)c2S(=O)(=O)N2CCC(C(=O)Nc3cc(F)ccc3F)CC2)cc1	100.1	77.8	.	99.9
Fc1ccc(-c2cc(C(F)(F)F)nc(-n3cccn3)n2)cc1	80.8	62.6	.	104.6
CCOc1ccccc1N(Cc1nc2nc(C)cc(=O)n2[nH]1)C(=O)C(C)C	.	.	-16.6	103.2
COc1cc(CO)ccc1OCC(=O)NC(C)(C)C	94.2	101.2	-14.2	97.0
CCOc1ccc(NC(=O)C2=C(C)C(=O)OC23CCC(C)CC3)cc1 (stereo not drawn)	97.8	89.6	-35.3	108.5
CC1(C)CC(CC(=O)N2CCCCC2)(c2ccccc2)CCO1 (stereo not drawn)	90.1	83.4	-9.7	104.1
O=C(O)CCCNc1nc(F)cc(F)n1	99.2	78.3	-0.5	102.1
Cc1ccc(N2C(=O)C3Sc4[nH]c(=O)sc4C(c4ccccc4)C3C2=O)cc1 (stereo not drawn)	106.7	70.3	.	104.8
Cc1ccc(Nc2cc(C)nc3nncn23)c(C)c1	75.8	91.3	5.2	108.7
Cn1ccnc1SCC(=O)N1c2ccccc2Sc2ccccc21	89.5	88.1	36.2	102.7
COc1cc(OC)cc(C(=O)N(C)CCc2ccc(OC)c(OC)c2)c1	95.4	96.5	-14.4	.
COc1ccc2cc(C3SC(C)C(=O)N3C3CCCO3)c(Cl)nc2c1 (stereo not drawn)	83.4	95.0	-44.7	.
CC(=O)N(c1ccccc1)c1nc(CSc2nnc(Cc3cccs3)n2C)cs1	102.3	95.3	-10.9	.
CCC(Sc1nc2ncccc2c(=O)n1Cc1ccccc1)C(=O)NCc1ccc(C)cc1 (stereo not drawn)	81.1	68.1	.	101.0
O=C(N/N=C1\CCS(=O)(=O)c2ccc(F)cc21)c1ccc(O)cc1	114.2	88.0	-35.2	.
COc1ccc(-c2nc(=S)n(CN3CCOCC3)[nH]2)cc1	65.9	62.9	-29.8	.
Cn1cc(Br)c(NC(=O)/C=C\C(=O)O)n1	101.0	98.8	-0.4	99.3
COc1ccc(C(=O)/C=C/Nc2ccccn2)c(OC)c1	92.6	86.7	-108.1	.
CCCCNC(=O)CN1C(=O)CCn2nc(C)cc21	.	.	-13.2	108.0
CCOc1ccc(N2CSC(=S)N(c3ccc(OCC)cc3)C2)cc1	95.3	86.0	-39.3	104.5
CCN1CCN(C(c2ccc(Cl)cc2)c2c(O)cc(C)n(CCOC)c2=O)CC1 (stereo not drawn)	75.3	86.8	.	98.7
CC(CC(=O)Nc1cccc(C(F)(F)F)c1)N1CCCC1 (stereo not drawn)	.	.	-2.4	102.7
Cc1cc(C)nc(NS(=O)(=O)c2ccc(NC(=O)c3ccc(S(=O)(=O)N4CCCCCC4)cc3)cc2)n1	.	.	-16.8	105.3
CC1CCN(C(=O)c2cccc(NC(=O)c3nsc4ccccc34)c2)CC1	68.8	68.4	.	108.3
O=C(Nc1cccc(NC(=O)c2ccc(Br)cc2)c1)c1ccccc1	96.1	88.3	-44.2	102.3
CCCCSc1nn2c(=O)c(Cc3ccccc3)nnc2s1	.	.	-27.4	97.0
C=C(C)Cn1cnc(-c2ccccc2)c1-c1ccccc1	48.5	34.7	-2.1	.
Cc1ccc(CN(Cc2ccco2)C(=O)COc2ccccc2C)cc1	78.7	61.7	3.6	103.6
Cc1ccc(C(=O)Nc2nnc(S(=O)(=O)N3CCC(C)CC3)s2)cc1	.	.	-12.9	106.3
COC(=O)c1cc(NC(=O)c2cccc3c2C(=O)N(Cc2cccnc2)C3)cc(C(=O)OC)c1	97.3	85.2	.	102.3
Cc1nc(N2CCc3ccccc32)nc2c1C(=O)CCC2	.	.	-17.9	102.8
C=CCn1c(=O)c2ccc(C(=O)NCC(C)C)cc2n2c(=O)n(CC(=O)NC(C)C)nc12	.	.	-6.1	99.6

An excerpt from above, limited to Sa growth 42C second temp, GIV Gai3 FP and HCMV UL50-53 inh.
compound,Sa growth 42C second temp,GIV Gai3 FP,HCMV UL50-53 inh
CC1CCN(C(=O)c2cccc(NC(=O)c3nsc4ccccc34)c2)CC1,68.4,108.3,.
O=C(Nc1cccc(NC(=O)c2ccc(Br)cc2)c1)c1ccccc1,88.3,102.3,-44.2
CCCCSc1nn2c(=O)c(Cc3ccccc3)nnc2s1,.,97.0,-27.4
C=C(C)Cn1cnc(-c2ccccc2)c1-c1ccccc1,34.7,.,-2.1
Cc1ccc(CN(Cc2ccco2)C(=O)COc2ccccc2C)cc1,61.7,103.6,3.6
Cc1ccc(C(=O)Nc2nnc(S(=O)(=O)N3CCC(C)CC3)s2)cc1,.,106.3,-12.9

Some of these compounds in order of SMILES length, lowest first:
SMILES	Sa growth 42C	Sa growth 42C second temp	HCMV UL50-53 inh	GIV Gai3 FP
O=C(Nc1cccc(NC(=O)c2ccc(Br)cc2)c1)c1ccccc1	96.1	88.3	-44.2	102.3
CC1CCN(C(=O)c2cccc(NC(=O)c3nsc4ccccc34)c2)CC1	68.8	68.4	.	108.3
Cc1ccc(C(=O)Nc2nnc(S(=O)(=O)N3CCC(C)CC3)s2)cc1	.	.	-12.9	106.3
CCN1CCN(C(c2ccc(Cl)cc2)c2c(O)cc(C)n(CCOC)c2=O)CC1 (stereo not drawn)	75.3	86.8	.	98.7
COC(=O)c1cc(NC(=O)c2cccc3c2C(=O)N(Cc2cccnc2)C3)cc(C(=O)OC)c1	97.3	85.2	.	102.3

(continued)
SMILES	Sa growth 42C	Sa growth 42C second temp	HCMV UL50-53 inh	GIV Gai3 FP
Cc1ccc([N+](=O)[O-])cc1N1C(=O)C2C3C=CC(O3)C2C1=O (stereo not drawn)	.	.	-23.2	98.0
O=c1[nH]c2ccc(NCc3ccccn3)cc2[nH]1	81.3	89.2	-14.0&-14.8	89.9&97.8
CC(CCN1CCCN(C)CC1)c1ccccc1 (stereo not drawn)	101.8	79.5	-10.9	101.7
COc1ccccc1CN(C)C(C)C(=O)NCC1CCCCC1 (stereo not drawn)	67.8	87.6	-9.8	.
Clc1ccc(CN2CCN(/N=C/C3=C(N4CCOCC4)C(=C\c4ccccc4)/CC3)CC2)cc1	107.9	104.5	6.2	.
CCCCOc1ccc(C2CC(=O)C3=C(C2)Nc2ccccc2N(C(C)=O)C3c2ccccc2)cc1 (stereo not drawn)	.	.	-9.4	97.1

Compound activity from PubChem BioAssay.
